CSC inhib: blocks cancer stem cells; 300,000 tested, 1.1% active; cancer stem cell-like cells viability, luminescence; inhibition, % at 7.5 µM;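 active = mean at 75% or more and at least half the replicates too; inconclusive = mean and replicates disagree; tested in HMLE shEcad cells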;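 also: 0% = median of negative and 100% = median of positive control wells; the first replicate is given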
eIF4H inh: inhibitors of RNA binding by human eIF4H | Q15056 | 290,000 tested, 0.94% active | inhibition, % at 35 µM | eIF4H fluorescence polarization binding assay;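 active = 50% or more with normal probe brightness, or confirmed in later tests; inconclusive = above 50% with abnormal brightness, or retests that disagree; inactive = below 50% or failed in later tests; about a fifth of its hits are not listed in these tables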;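 also: calls also rest on retests at 20 µM and on dose response follow-up; 0% = protein and probe with vehicle and 100% = probe without protein; strong numbers were not always called active; many hits fall short of the cut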
MT1-MMP act inh: inhibitors of human MT1-MMP activation; 360,000 tested, 0.061% active; GFP/RFP ratio change, % at 20 µM; HT1080 RFP-PRO-GFP cells, GFP/RFP ratio fluorescence, overnight; percent of plate control window, DMSO zero; AID 651647;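 active = GFP/RFP ratio change of at least 30% with cell ATP level not reduced by more than half and red fluorescence within 50% of control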; also: strong numbers were not always called active
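Read-out: GFP/RFP fluorescence ratio; Test system: RFP-PRO-GFP reporter HT1080 cells; Compound dosing: single-point 20 µM compound, 1% DMSO; Times: overnight compound exposure at 37 °C.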
Yeast UUG start: yeast start codon fidelity modulation; S. cerevisiae UUG-firefly luciferase reporter, luminescence/redox ratio; activity score, % at 18.7 µM; 350,000 tested, 0.13% active; AID 602363;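 active = replicate mean at a twofold rise or more, about +100% in these data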;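 also: firefly luciferase made from a UUG start codon reports start codon fidelity; reporter light over untreated wells divided by growth signal over untreated wells; some hits fall short of that in this replicate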
HIV Env fusion: blocks HIV Env-driven cell-cell fusion. 360,000 tested, 1.1% active. inhibition, % at 12.3 µM. HeLa-JRFL Env/CEM21 cell fusion, luciferase. AID 651610;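 active = mean replicate inhibition score of at least 50 and every replicate individually at or above 50; inconclusive = only one of the two criteria met; inactive = mean below 50 and not all replicates reaching 50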;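 also: 0% = plate neutral controls and 100% = maraviroc near 300 nM; one replicate is shown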
PABP polyA inh: PABP-poly(A) binding inhibition; inhibition, % at 35 µM; PABP-poly(A) RNA binding, fluorescence polarization; 290,000 tested, 1% active; AID 2014; P11940;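 active = 50% or more with normal probe brightness, or confirmed in later tests; inconclusive = above 50% with abnormal brightness, or retests that disagree; inactive = below 50% or failed in later tests; about a fifth of its hits are not listed in these tables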;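 also: calls also rest on retests at 20 µM and on dose response follow-up; controls were probe without protein and protein plus probe with vehicle; some compounds called inactive have numbers as strong as hits; many hits fall short of the cut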
Target sequence (P11940 whole entry, looked up): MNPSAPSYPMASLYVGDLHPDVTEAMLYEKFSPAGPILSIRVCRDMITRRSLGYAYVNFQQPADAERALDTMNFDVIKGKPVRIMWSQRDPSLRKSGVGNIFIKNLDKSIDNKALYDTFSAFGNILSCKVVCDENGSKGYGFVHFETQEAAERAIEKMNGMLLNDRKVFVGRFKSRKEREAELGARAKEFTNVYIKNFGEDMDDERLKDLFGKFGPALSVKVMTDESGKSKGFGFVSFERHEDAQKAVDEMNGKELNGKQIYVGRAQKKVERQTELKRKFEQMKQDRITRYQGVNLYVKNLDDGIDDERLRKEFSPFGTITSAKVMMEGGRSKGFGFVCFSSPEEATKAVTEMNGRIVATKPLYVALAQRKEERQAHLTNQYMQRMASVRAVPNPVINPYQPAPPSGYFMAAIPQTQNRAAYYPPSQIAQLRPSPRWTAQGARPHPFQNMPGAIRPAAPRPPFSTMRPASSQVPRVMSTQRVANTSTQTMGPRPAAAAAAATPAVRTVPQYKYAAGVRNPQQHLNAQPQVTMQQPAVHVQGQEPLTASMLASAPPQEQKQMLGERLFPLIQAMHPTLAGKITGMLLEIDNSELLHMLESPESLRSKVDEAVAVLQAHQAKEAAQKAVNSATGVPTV
Rce1 inh: blocks yeast Ras-converting enzyme. yeast membranes, quenched prenylated peptide cleavage fluorescence. calls only. Q03530. 290,000 tested, 0.27% active. AID 2563;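 active = fall in fluorescence gain of 50% or more versus controls, with final raw signal at or below 3038400; inconclusive = same 50% fall but final raw signal above 3038400; inactive = fall in fluorescence gain under 50%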;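 also: plate controls were neutral control wells for no effect and wells lacking membranes for full effect; tested at 10 µM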
Target sequence (Q03530 whole entry, looked up): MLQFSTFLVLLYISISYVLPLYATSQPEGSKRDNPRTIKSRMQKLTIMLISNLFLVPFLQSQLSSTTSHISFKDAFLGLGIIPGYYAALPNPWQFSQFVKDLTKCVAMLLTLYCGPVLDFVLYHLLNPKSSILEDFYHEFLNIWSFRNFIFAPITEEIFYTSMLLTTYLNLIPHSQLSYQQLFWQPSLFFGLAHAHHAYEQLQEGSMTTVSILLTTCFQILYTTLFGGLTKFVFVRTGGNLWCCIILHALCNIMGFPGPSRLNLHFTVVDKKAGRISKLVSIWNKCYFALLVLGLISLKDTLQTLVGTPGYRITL
eIF4H inh retest: recorded beside eIF4H inh, whose call it bears; inhibition, %; compound at 20 µM; confirmation average;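 mean of two retest wells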
PABP polyA inh retest: recorded beside PABP polyA inh, whose call it bears; inhibition, %; compound at 20 µM; confirmation repeats;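 mean of two retest wells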
MT1-MMP act inh RFP: second read-out of MT1-MMP act inh, no call of its own (marks repeat the call); RFP signal change, %; measured here: RFP expression control read;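 0 = vehicle wells; hits needed this value within 50% of zero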
Active calls of the source: *; i = inactive; ? = inconclusive; · = not tested or not shown. An excerpt; the hit share may differ from the screen's.

SMILES	CSC inhib	eIF4H inh	MT1-MMP act inh	MT1-MMP act inh RFP	Yeast UUG start	HIV Env fusion	PABP polyA inh	Rce1 inh	others
CC(C)C(C(=O)NCC1CCCO1)N(Cc1ccccc1)C(=O)CNS(=O)(=O)c1ccccc1 (centres undefined)	9	10	-2	1	-10	24	18	i
COc1cccc(-c2noc(CCC(=O)NCC3CCCO3)n2)c1 (centres undefined)	-32	12	3	4	-1	1	-14	i
CC(=O)Nc1cccc(NC(=O)c2cccc(S(=O)(=O)N3CCN(Cc4ccccc4)CC3)c2)c1	-1	·	-2	-4	-3	·	·	i
O=C(COC(=O)c1ccccc1Br)Nc1cc(S(=O)(=O)N2CCOCC2)ccc1N1CCCC1	3	-2	-1	-3	·	16	4	i
Cc1ccc2cc3c(NC(=O)C4CCCO4)nn(CC(C)C)c3nc2c1 (centres undefined)	-12	-14	4	1	-6	-62	0	i
O=C(O)CNC(=O)C12CC3CC(CC(Cl)(C3)C1)C2	-8	6	0	5	·	-6	56	i	eIF4H inh retest=0;PABP polyA inh retest=4
COc1ccc(/C=C(/NC(=O)c2cccs2)C(=O)NC(C)(C)C)cc1OC	-13	-10	3	0	-21	7	5	i
CCOc1ccc(NC(=O)CCN2C(=O)C3CCCCC3C2=O)cc1OCC (centres undefined)	·	·	3	-3	1	30	·	i
COCCOC(=O)c1cc(C(=O)c2cc(Cl)ccc2O)coc1=N	·	-9	-5	-2	·	5	1	i
CCOC(=O)C(=O)Nc1ccccc1C(=O)OCC	-2	-7	0	4	-22	7	5	i
CCc1nnc(NC(=O)c2sc3nc4c(cc3c2N)CCCCCC4)s1	50	34	7	-4	·	-79	-21	i
O=S(=O)(NC1=NCCC1)c1cccc(NS(=O)(=O)c2ccc(OC(F)(F)F)cc2)c1	-1	-8	3	11	-11	4	1	i
CC1=C(C(=O)NCc2ccccc2)C(c2ccc(C)o2)n2ncnc2N1 (centres undefined)	2	-8	2	2	6	-99	1	i
O=C(Nc1ccc(F)cc1)C1CCCN(S(=O)(=O)c2ccc(-n3cnnn3)cc2)C1 (centres undefined)	0	-9	-2	-4	1	6	4	i
CC(C)c1ccc(NC(=O)C2Cc3c(-c4ccco4)ccnc3O2)cc1 (centres undefined)	·	·	1	-1	-13	-9	·	·
Cc1cccc(C(=O)NCc2nnc(SCC(=O)Nc3nnc(C)s3)n2C)c1	-10	-6	4	5	-17	3	-12	i
CCCC(=O)Nc1cc(Cl)ccc1C	-3	2	0	2	·	4	2	i
COc1ccc(OC)c(NC(=O)c2oc3c(c2C)C(O)CC(C)(C)C3)c1 (centres undefined)	-24	-3	1	0	-22	-1	-6	i
O=C(NC1CCCCC1)C(=S)NC1CCCCC1	-4	-8	·	·	·	·	2	i
COc1ccc(NC2c3ccccc3C(=O)N2Cc2ccc3c(c2)OCO3)cc1 (centres undefined)	1	-4	-1	-4	3	11	-6	i
O=C(O)c1c(-c2ccccc2)oc2ccc(O)cc12	-12	-5	0	0	-5	6	6	i
COc1ccc2oc(C(=O)OCC(=O)NCC3CCCO3)c(C)c2c1 (centres undefined)	-10	·	4	-1	-11	20	·	i
CC(=O)Nc1ccc(S(=O)(=O)N2C(=O)c3cccc4cccc2c34)cc1	21	-2	·	·	·	-9	-8	i
CC(=O)NCCNc1nc2cc(-c3cccc(Cl)c3)sc2c(=O)n1C	·	·	3	-10	-27	7	·	·
ON=C1c2ccccc2-c2ccccc21	4	-8	-3	-3	-21	-2	0	i
COc1cc(CNC2CCCC2)cc(OC)c1	1	3	-2	1	-14	·	-4	i
CC(C)(C)OC(=O)C[C@H]1C/C=C\C[C@@H](CC(=O)N(CCO)Cc2ccccc2)C(=O)N2CCC[C@@H]2COC1=O	·	·	2	1	26	-9	·	·
O=C(CN1C(=O)c2ccccc2C1=O)Oc1ccc(Cl)cc1	-9	-12	2	1	2	-7	-4	i
CCCn1c(=O)c(C(=O)N/N=C/c2ccccc2F)c(O)c2ccccc21	·	1	0	6	·	-10	-13	i
Cc1ccnc(NC(=O)CCC(=O)N(CC(=O)NCCc2ccccc2)c2ccc(F)cc2)c1	2	-5	-5	-5	1	-1	-4	i
COc1cc(NC(=O)c2ccccc2Cl)c(OC)cc1NC(=O)CN1CCOCC1	-14	-3	2	6	-19	·	-3	i
CC(NC(=O)/C(C#N)=C/c1ccc([N+](=O)[O-])o1)c1ccccc1 (centres undefined)	·	12	-7	28	-16	-246	14	i
O=C(Nc1ccc2oc(-c3ccccc3)nc2c1)c1ccco1	1	7	3	-2	·	-85	-3	i
Cc1nc(C(F)(F)F)ccc1C(=O)N1CCCC1(C)C(=O)NCC(C)C (centres undefined)	·	·	8	8	-12	2	·	·
N#Cc1ccccc1OCC(=O)OCC(=O)c1c[nH]c2ccccc12	-20	·	0	4	-1	·	·	·
COc1ccc(-c2ccc(=O)n(CC(=O)NCc3ccco3)n2)cc1	6	0	12	-7	14	·	1	i
CC(C)/C=C/CN1CCC(Oc2ccc(C(=O)N3CCCC3)cc2)CC1	-5	7	1	5	8	-6	-6	·
COc1ccc2c(c1)c(=O)oc1cc(OCC(=O)N3CCCC(C)C3)ccc12 (centres undefined)	-5	22	3	-5	-5	·	-4	i
COc1ccc(NC(=O)N(C)C[C@H]2Oc3ccc(NC(=O)Nc4ccc(C(F)(F)F)cc4)cc3C(=O)N([C@H](C)CO)C[C@@H]2C)cc1	·	·	13	7	-13	-83	·	·
Cc1ccc(Sc2ccncc2S(N)(=O)=O)cc1	-4	-9	1	3	-18	-1	-4	i
CC(=O)Nc1ccc(NC(=O)CCCCCN2C(=O)c3ccccc3C2=O)cc1	5	-3	2	4	-9	-14	0	i
COc1cc([N+](=O)[O-])ccc1NC(=O)NN1CCN(C)CC1	-21	-7	-4	1	-17	12	-5	i
C=CCn1c(SCc2nc3ccccc3c(=O)[nH]2)nc2scc(C3CC3)c2c1=O	10	-1	-4	-2	·	-10	-8	i
CCc1nc2c(OCCOC)cccn2c1N(C)C(=O)Nc1ccccc1OC	·	·	-6	4	-18	4	·	·
Nc1nc2ccccc2n1C(=O)c1ccccc1	21	1	8	0	·	-16	2	i
Cc1ccccc1-c1ncc(CN2CCC(CO)(CCCc3ccccc3)CC2)cn1	4	-1	2	-8	·	6	-5	i
COCc1cc(CN2CCN(C)CC2)c(O)c2ncccc12	25	34	5	11	-36	-9	-3	i
CC(=O)Nc1ccc(Nc2cc(C)nc3c(-c4ccccc4)cnn23)cc1	58	1	-6	-20	-10	·	4	·
O=C(Cc1ccc(Cl)cc1)Nc1ccncc1	0	6	-8	-24	-15	4	6	i
O=C(O)CCNC(=O)/C(=C\C=C\c1ccccc1)NC(=O)c1ccccc1	·	3	2	2	3	-88	-1	i
Cc1cccc(-n2nc3c(c2NC(=O)C(C)C)CSC3)c1	-12	-9	-2	-2	-20	9	-4	i
COCCNC(=O)Cn1nc(-c2ccccc2C)ccc1=O	-14	4	-2	4	-28	6	-1	i
CCN1CC2=C(OC(N)=C(C#N)C2c2cccs2)/C(=C/c2cccs2)C1 (centres undefined)	-1	?	-21	10	-6	-13	?	i
COc1ccc(CNC(=O)c2ccc(CS(=O)(=O)c3ccc(OC)cc3)o2)cc1	·	·	-3	-5	10	2	·	·
CCOC(=O)C1=C(CCc2ccccc2)NC(=O)NC1c1cccc([N+](=O)[O-])c1 (centres undefined)	-4	-2	9	-4	-20	18	21	i
O=c1[nH]c2ccccc2nc1N1CCOCC1	-8	-2	-2	-3	-29	0	5	i
Cc1ccc(-c2csc3ncnc(-n4cnc5ccccc54)c23)cc1	77*	1	2	-4	-17	-7	-2	i
CCOCC(=O)Nc1ncc(S(=O)(=O)c2ccc([N+](=O)[O-])cc2)s1	-6	-2	5	4	-14	5	3	i
Cc1cc(C)n2nc(SCC(=O)N(C)Cc3ccccc3)nc2n1	1	-7	0	3	-11	0	-7	i
COc1ccc(S(=O)(=O)N2CCC(C(=O)N(C)Cc3ccc(C)o3)CC2)cc1OC	·	·	-3	2	5	1	·	·

(continued)
SMILES	CSC inhib	eIF4H inh	MT1-MMP act inh	MT1-MMP act inh RFP	Yeast UUG start	HIV Env fusion	PABP polyA inh	Rce1 inh	others
Cc1ccc(C2(c3noc(CN(C)CCO)n3)CCCC2)cc1	-2	5	3	3	9	11	-3	i
CC(C)(C)C(=O)NC(=S)Nc1sc2c(c1C#N)CCCCC2	56	1	-7	-10	·	·	1	i
O=C(c1cc2sccc2n1Cc1ccccc1)N1CCc2ccccc21	10	-9	-10	-8	2	0	-6	i
COc1cccc2c(=O)c3c(cnn3C)n(C)c12	-8	6	3	4	-25	·	4	i
COc1ccc(S(=O)(=O)NCC(c2ccc(F)cc2)N2CCN(C)CC2)cc1 (centres undefined)	·	·	-3	2	1	-2	·	i
O=C(Nc1nc(-c2ccccn2)cs1)c1ccc(F)c(S(=O)(=O)N2CCOCC2)c1	·	·	-4	-15	-17	42	·	·
Cc1ccc(/C=N/Nc2ccc3ccccc3n2)o1	-9	20	2	-7	-70	-23	-9	i
C#CCOCCOCCOCCNc1nc(N2CCN(C(=O)[C@H](CCCCN)n3cc(C(N)CO)nn3)CC2)nc(N2CCN(C(=O)[C@H](CCC(=O)O)n3cc(C(N)CC(C)C)nn3)CC2)n1 (some centres undefined)	·	29	·	·	·	·	39	i

Of the compounds above, these have a thiophene ring, fused or not.
SMILES	CSC inhib	eIF4H inh	MT1-MMP act inh	MT1-MMP act inh RFP	Yeast UUG start	HIV Env fusion	PABP polyA inh	Rce1 inh	others
COc1ccc(/C=C(/NC(=O)c2cccs2)C(=O)NC(C)(C)C)cc1OC	-13	-10	3	0	-21	7	5	i
CCc1nnc(NC(=O)c2sc3nc4c(cc3c2N)CCCCCC4)s1	50	34	7	-4	·	-79	-21	i
CC(=O)NCCNc1nc2cc(-c3cccc(Cl)c3)sc2c(=O)n1C	·	·	3	-10	-27	7	·	·
C=CCn1c(SCc2nc3ccccc3c(=O)[nH]2)nc2scc(C3CC3)c2c1=O	10	-1	-4	-2	·	-10	-8	i
CCN1CC2=C(OC(N)=C(C#N)C2c2cccs2)/C(=C/c2cccs2)C1 (centres undefined)	-1	?	-21	10	-6	-13	?	i
Cc1ccc(-c2csc3ncnc(-n4cnc5ccccc54)c23)cc1	77*	1	2	-4	-17	-7	-2	i
CC(C)(C)C(=O)NC(=S)Nc1sc2c(c1C#N)CCCCC2	56	1	-7	-10	·	·	1	i
O=C(c1cc2sccc2n1Cc1ccccc1)N1CCc2ccccc21	10	-9	-10	-8	2	0	-6	i

Compound activity deposited in PubChem BioAssay by several laboratories.
